Assay outcomes: PubChem, Broad Institute
Yeast UUG start: modulators of yeast start codon fidelity, primary screen, whole organism, S. cerevisiae, single point, plate reader; S. cerevisiae UUG-firefly luciferase reporter, luminescence/redox ratio; 0.13% of 350,000 active; activity score, % at 18.7 µM;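 active = replicate mean at a twofold rise or more, about +100% in these data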;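 also: firefly luciferase made from a UUG start codon reports start codon fidelity; reporter light over untreated wells divided by growth signal over untreated wells; some hits fall short of that in this replicate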
* hit, by the source's call. These rows are one share of the data; rates above refer to the full screens.

A first look, 11 compounds:
Yeast UUG start,Molecule
11,CC(=O)N1[C@@H]2c3ccc(C4=CCCC4)c(=O)n3C[C@H]1[C@H](CO)[C@H]2C(=O)NC1CCC1
12,C[C@H](CO)N1C[C@H](C)[C@H](CN(C)C(=O)Nc2ccc(F)cc2)Oc2c(NC(=O)C3CCCCC3)cccc2C1=O
10,Cc1ccccc1NC(=O)Nc1ccc2c(c1)C(=O)N(C)[C@@H]1CC[C@H](CC(=O)NCC3CC3)O[C@H]1CO2
-18,Cc1ccccc1S(=O)(=O)N1CC[C@H]2[C@H](CO)Nc3ccc(-c4ccccc4)cc3[C@H]21
15,CN(C)C(=O)c1ccc(-c2ccc3c(c2)[C@H]2[C@H](CCN2C(=O)C2CC2)[C@H](CO)N3C)cc1
3,O=C(c1ccccc1F)N1CC[C@@H]2[C@@H](CO)Nc3ccc(-c4ccccc4)cc3[C@@H]21
-1,C[C@H]1CN([C@@H](C)CO)C(=O)Cc2cc(NC(=O)NC3CCCCC3)ccc2O[C@H]1CN(C)S(C)(=O)=O
5,CO[C@H]1CN(C)C(=O)c2ccc(NC(=O)Nc3ccccc3)cc2OC[C@@H](C)NC[C@@H]1C
-9,CCC(=O)N1[C@H](CO)[C@H]2c3ccccc3N(S(=O)(=O)c3ccccc3)C[C@H]21
2,COc1ccc(C(=O)Nc2ccc3c(c2)C(=O)N(C)C[C@H](OC)[C@H](C)CN(C(C)=O)[C@H](C)CO3)cc1
-13,O=C(C[C@@H]1CC[C@@H]2[C@H](COC[C@H](O)CN2C(=O)Nc2ccccc2)O1)NCCc1ccncc1

The listing, repeating the preview:
Yeast UUG start,Molecule
11,CC(=O)N1[C@@H]2c3ccc(C4=CCCC4)c(=O)n3C[C@H]1[C@H](CO)[C@H]2C(=O)NC1CCC1
12,C[C@H](CO)N1C[C@H](C)[C@H](CN(C)C(=O)Nc2ccc(F)cc2)Oc2c(NC(=O)C3CCCCC3)cccc2C1=O
10,Cc1ccccc1NC(=O)Nc1ccc2c(c1)C(=O)N(C)[C@@H]1CC[C@H](CC(=O)NCC3CC3)O[C@H]1CO2
-18,Cc1ccccc1S(=O)(=O)N1CC[C@H]2[C@H](CO)Nc3ccc(-c4ccccc4)cc3[C@H]21
15,CN(C)C(=O)c1ccc(-c2ccc3c(c2)[C@H]2[C@H](CCN2C(=O)C2CC2)[C@H](CO)N3C)cc1
3,O=C(c1ccccc1F)N1CC[C@@H]2[C@@H](CO)Nc3ccc(-c4ccccc4)cc3[C@@H]21
-1,C[C@H]1CN([C@@H](C)CO)C(=O)Cc2cc(NC(=O)NC3CCCCC3)ccc2O[C@H]1CN(C)S(C)(=O)=O
5,CO[C@H]1CN(C)C(=O)c2ccc(NC(=O)Nc3ccccc3)cc2OC[C@@H](C)NC[C@@H]1C
-9,CCC(=O)N1[C@H](CO)[C@H]2c3ccccc3N(S(=O)(=O)c3ccccc3)C[C@H]21
2,COc1ccc(C(=O)Nc2ccc3c(c2)C(=O)N(C)C[C@H](OC)[C@H](C)CN(C(C)=O)[C@H](C)CO3)cc1
-13,O=C(C[C@@H]1CC[C@@H]2[C@H](COC[C@H](O)CN2C(=O)Nc2ccccc2)O1)NCCc1ccncc1
-6,CO[C@H]1CN(C)C(=O)c2ccc(NC(=O)Nc3ccc(Cl)cc3)cc2OC[C@H](C)N(C(=O)Nc2c(C)noc2C)C[C@H]1C
5,C[C@H](CO)N1C[C@H](C)[C@H](CN(C)C(=O)Nc2ccc3c(c2)OCO3)Oc2ccc(NS(=O)(=O)c3ccc(Cl)cc3)cc2C1=O
-6,O=C(C1CCCC1)N1CCCCN2[C@H](C1)[C@H](c1ccc(-c3cccc(F)c3)cc1)[C@@H]2CO
8,C[C@@H]1CN([C@H](C)CO)C(=O)c2cc(NC(=O)Nc3ccccc3)ccc2O[C@@H]1CN(C)Cc1ccc2c(c1)OCO2
-4,COc1ccccc1CN1CC[C@@H]2[C@H]1c1cc(-c3cccc(C(=O)N(C)C)c3)ccc1N[C@@H]2CO
-2,CC(C)NC(=O)Nc1cccc2c1O[C@@H](CN(C)C(=O)Nc1ccc(F)cc1)[C@H](C)CN([C@H](C)CO)C2=O
1,COc1ccc(C#Cc2ccc([C@@H]3[C@H](CO)N4CCCCN(S(=O)(=O)c5cn(C)cn5)C[C@@H]34)cc2)cc1
6,CO[C@@H]1CN(C)C(=O)c2cc(NC(=O)C3CC3)ccc2OC[C@@H](C)N(C(C)=O)C[C@@H]1C
-9,CN1C[C@@H]2[C@H](c3ccccc31)[C@@H](CO)N2Cc1ccccc1F
-10,CN(C)C(=O)C[C@H]1C[C@@H]2c3cc(NS(=O)(=O)c4ccccc4)ccc3O[C@@H]2[C@H](CO)O1
-3,COc1ccccc1CN(C)C[C@H]1OCc2cn(nn2)CCCC(=O)N([C@@H](C)CO)C[C@@H]1C
30,OC[C@H]1[C@H](c2ccc(C#CC3(O)CCCC3)cc2)[C@@H]2CN(Cc3ccncc3)CCCCN12
16,CCCNC(=O)Nc1ccc2c(c1)OC[C@@H](C)N(C(=O)CC)C[C@H](C)[C@@H](OC)CN(C)C2=O
24,Cc1ccc(S(=O)(=O)Nc2ccc3c(c2)CC(=O)N([C@@H](C)CO)C[C@H](C)[C@@H](CN(C)CC2CC2)O3)cc1
-2,COc1cccc(NC(=O)N2[C@H](CO)[C@H](c3ccccc3)[C@H]2CNC(C)C)c1
-6,CN1c2ccc(C#Cc3cccnc3)cc2[C@H]2[C@H](CCN2C(=O)C2CCOCC2)[C@@H]1CO
-23,OC[C@H]1[C@@H](c2ccc(/C=C/c3ccccc3)cc2)[C@@H]2CN(Cc3cccnc3)CCCCN12
-2,CN1C[C@@H]2[C@H](c3ccccc31)[C@H](CO)N2C(=O)C1CCCC1
38,CC(C)(O)C#Cc1ccc([C@@H]2[C@@H](CO)N3CCCCN(C(=O)c4ccc(F)cc4)C[C@@H]23)cc1
1,CCCC(=O)Nc1ccc2c(c1)OC[C@@H](C)N(Cc1ccc(-c3ccccn3)cc1)C[C@@H](C)[C@H](OC)CN(C)C2=O
9,O=C(C[C@H]1CC[C@@H]2[C@H](COC[C@@H](O)CN2Cc2cccc(C(F)(F)F)c2)O1)NCCc1ccccc1
29,CN1c2ccc(Br)cc2[C@@H]2[C@@H](CCN2C(=O)C2CCCCC2)[C@@H]1CO
3,CN1C(=O)c2cc(NC(=O)NCc3ccccc3)ccc2OC[C@@H]2O[C@@H](CC(=O)NCC3CCCCC3)CC[C@H]21
-10,C[C@@H]1CN([C@@H](C)CO)C(=O)c2cc(NC(=O)c3ccncc3)ccc2O[C@H]1CN(C)S(=O)(=O)c1cn(C)cn1
1,CC(C)NC(=O)N(C)C[C@H]1Oc2ccc(NC(=O)CCC(F)(F)F)cc2C(=O)N([C@@H](C)CO)C[C@H]1C
7,C[C@@H]1CN([C@H](C)CO)C(=O)Cc2cc(NC(=O)CCC(F)(F)F)ccc2O[C@H]1CN(C)S(=O)(=O)c1ccccc1
6,CO[C@H]1CN(C)C(=O)c2cc(NC(=O)C3CC3)ccc2OC[C@H](C)N(C(=O)c2ccccc2)C[C@@H]1C
17,O=C(C[C@@H]1C[C@@H]2c3cc(NC(=O)Nc4ccc(F)cc4)ccc3O[C@@H]2[C@@H](CO)O1)NCC1CC1
6,COc1ccc(CN(C)C[C@@H]2Oc3ccc(NC(=O)Nc4ccc(F)cc4)cc3C(=O)N([C@@H](C)CO)C[C@@H]2C)cc1
13,C/C=C/c1ccc([C@H]2[C@@H](CN(C)C(=O)C3CC3)N(C(=O)CC)[C@H]2CO)cc1
8,CCC(=O)N1[C@@H]2c3ccc(C4=CCCCC4)c(=O)n3C[C@@H]2[C@@H](CO)[C@@H]1C(=O)NC1CCC1
-9,CN1CCN(C(=O)[C@H]2[C@H](CO)[C@H]3Cn4c(ccc(-c5cncnc5)c4=O)[C@H]3N2CC2CCCC2)CC1
-1,C[C@@H]1CN([C@H](C)CO)C(=O)Cc2cc(NC(=O)Nc3ccccc3)ccc2O[C@H]1CN(C)Cc1ccc(C(=O)O)cc1
-14,O=C(O)C[C@H]1C[C@@H]2c3cc(NC(=O)Nc4ccc(F)cc4)ccc3O[C@@H]2[C@H](CO)O1
-11,Cc1ccc(-c2ccc([C@H]3[C@@H](CO)N4CCCCN(S(=O)(=O)c5ccccc5C)C[C@H]34)cc2)cc1
1,O=S(=O)(c1ccc(F)cc1)N1CCCCN2[C@@H](CO)[C@@H](c3ccc(C#CC4CCCC4)cc3)[C@@H]2C1
18,C[C@H]1CN([C@@H](C)CO)C(=O)c2cccc(NC(=O)c3ccc(-c4nccs4)cc3)c2O[C@H]1CN(C)Cc1ccc(Oc2ccccc2)cc1
2,CO[C@H]1CN(C)C(=O)c2cc(NC(=O)NC(C)C)ccc2OC[C@@H](C)N(Cc2ccc(-c3ccccn3)cc2)C[C@H]1C
4,Cc1noc(C)c1NC(=O)Nc1ccc2c(c1)C(=O)N([C@@H](C)CO)C[C@H](C)[C@@H](CN(C)C(=O)Nc1ccc(C(F)(F)F)cc1)O2
20,COC(=O)N(C)C[C@@H]1OCc2ccccc2-c2c(n(C)c3ccccc23)C(=O)N([C@@H](C)CO)C[C@@H]1C
-13,O=C(O)[C@H]1[C@H](CO)[C@H]2Cn3c(ccc(-c4cncnc4)c3=O)[C@H]2N1C(=O)C1CCC1
0,CO[C@@H]1CN(C)C(=O)c2ccc(NS(=O)(=O)c3cccc(C)c3)cc2OC[C@H](C)NC[C@@H]1C
-19,Cc1noc(C)c1NC(=O)N(C)C[C@H]1Oc2ccc(NS(C)(=O)=O)cc2C(=O)N([C@H](C)CO)C[C@@H]1C
30,O=C(Nc1ccccc1)N1CCCCN2[C@H](C1)[C@H](c1ccc(C#Cc3ccccc3)cc1)[C@@H]2CO
12,O=S(=O)(c1ccccc1F)N1CCCCN2[C@H](CO)[C@H](c3ccc(-c4ccccc4)cc3)[C@H]2C1
-6,O=C(NC[C@H]1[C@H](c2ccccc2)[C@H](CO)N1CC1CCCC1)c1ccncc1
4,COc1ccc(NC(=O)N2CCCCN3[C@H](C2)[C@@H](c2ccc(C4=CCCC4)cc2)[C@@H]3CO)cc1
-9,COc1ccc(S(=O)(=O)N(C)C[C@H]2Oc3ccc(NC(=O)Cc4cn(C)c5ccccc45)cc3C(=O)N([C@H](C)CO)C[C@H]2C)cc1
14,COc1ccccc1CNC(=O)C[C@@H]1CC[C@H]2[C@@H](COC[C@H](O)CN2C(=O)Nc2ccc(C(F)(F)F)cc2)O1

Later entries
Yeast UUG start,Molecule
1,CO[C@@H]1CN(C)C(=O)c2cc(NC(=O)c3cccc(F)c3)ccc2OC[C@H](C)N(CC2CC2)C[C@@H]1C
-8,C[C@H]1CN([C@@H](C)CO)C(=O)c2cc(NS(C)(=O)=O)ccc2O[C@H]1CN(C)Cc1ccc(C(=O)O)cc1
3,CCC(=O)N1[C@H](CO)[C@@H]2c3ccccc3N(S(=O)(=O)c3ccccc3F)C[C@@H]21
3,O=S(=O)(Cc1ccccc1)N1CCCCN2[C@H](CO)[C@H](c3ccc(-c4ccc(F)cc4)cc3)[C@@H]2C1
6,C[C@@H]1CN([C@@H](C)CO)C(=O)Cc2cc(NC(=O)C3CCCCC3)ccc2O[C@H]1CN(C)Cc1ccccc1
-12,CCC(=O)Nc1ccc2c(c1)C(=O)N(C)C[C@H](OC)[C@H](C)CN(C(=O)c1ccccn1)[C@H](C)CO2
-6,CN1C(=O)c2cc(NC(=O)c3ccccc3Cl)ccc2OC[C@@H]2O[C@H](CC(=O)O)CC[C@@H]21
-14,C[C@@H]1CN([C@H](C)CO)C(=O)c2cccc(NC(=O)Nc3ccc(C(F)(F)F)cc3)c2O[C@H]1CN(C)S(=O)(=O)c1ccc(Cl)cc1
10,OC[C@H]1[C@H](c2ccc(C#Cc3ccccc3)cc2)[C@H]2CN(Cc3cncnc3)CCCCN21
15,COCC(=O)Nc1ccc2c(c1)OC[C@@H](C)N(C(=O)COC)C[C@H](C)[C@H](OC)CN(C)C2=O
22,COc1ccc(NC(=O)N2C[C@@H](O)COC[C@H]3O[C@@H](CC(=O)NC4Cc5ccccc5C4)CC[C@@H]32)cc1
13,CC(=O)NC[C@H]1[C@H](c2ccc(C3=CCCC3)cc2)[C@@H](CO)N1C(=O)NC(C)C
-2,COc1ccc(NC(=O)Nc2ccc3c(c2)C(=O)N([C@H](C)CO)C[C@H](C)[C@H](CN(C)Cc2ccc(Cl)c(Cl)c2)O3)cc1
-4,COCC(=O)Nc1ccc2c(c1)OC[C@@H](C)N(Cc1ccccc1F)C[C@@H](C)[C@@H](OC)CN(C)C2=O
20,CCN1[C@@H]2c3ccc(C4=CCCCC4)c(=O)n3C[C@@H]2[C@@H](CO)[C@@H]1C(=O)NC1Cc2ccccc2C1
2,C[C@@H]1CN([C@H](C)CO)C(=O)c2cccc(NC(=O)C3CCCCC3)c2O[C@@H]1CN(C)Cc1ccc(C(F)(F)F)cc1
-13,CCC(=O)Nc1ccc2c(c1)OC[C@H](C)N(Cc1cncnc1)C[C@@H](C)[C@@H](OC)CN(C)C2=O
18,CCCC(=O)Nc1ccc2c(c1)OC[C@@H](C)N(Cc1ccccc1F)C[C@@H](C)[C@@H](OC)CN(C)C2=O
-16,COc1ccc(CN(C)C[C@H]2OCc3cnnn3CCCC(=O)N([C@@H](C)CO)C[C@@H]2C)cc1
-15,CC1CCCCC12NC(=O)N(CC(=O)Nc1ccc(S(=O)(=O)Nc3ncccn3)cc1)C2=O (stereo not given)
6,COCC(=O)Nc1ccc2c(c1)OC[C@@H](C)N(Cc1ccccc1)C[C@H](C)[C@H](OC)CN(C)C2=O
30,O=S(=O)(c1ccccc1F)N1CCCCN2[C@H](CO)[C@@H](c3ccc(-c4ccccc4)cc3)[C@@H]2C1
20,C[C@@H](O)C#Cc1ccc([C@@H]2[C@@H](CO)N3CCCCN(CC4CCOCC4)C[C@H]23)cc1
9,O=C(Nc1ccccc1)N1CCCCN2[C@H](CO)[C@@H](c3ccc(-c4ccccc4F)cc3)[C@H]2C1
-2,CN1CCN(C(=O)C[C@H]2CC[C@H]3[C@@H](COC[C@@H](O)CN3C(=O)c3ccc(F)cc3)O2)CC1
